Autofluor counter = compound fluorescence in toxin protease inhibitor counterscreen; compound autofluorescence counterscreen, microsphere flow cytometry; active compounds read high; fluorescence intensity (no concentration beside the values); actives 3.1% (n = 360,000); AID 624483;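 active = at least 3 SD above the mean of all compounds, about 16000 in these data; inconclusive = too few beads counted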;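 also: 100 nL of 1 mM stock went into each well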
ugtP null kill = growth inhibition of S. aureus ugtP deletion strain | S. aureus RN4220 ugtP deletion, OD600 growth, 16 h; some inactives read as strong as hits | growth inhibition, % (test concentration not listed) | actives 0.54% (n = 330,000);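 active = z-score under -3 and OD600 up to 0.15 on both plates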;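 also: plate controls were untreated wells for no effect and antibiotic for full effect; wells of about 80 µL received 100 nL stock; the first replicate is given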
Mtb hypoxia inh = Mtb hypoxia fluorescent reporter inhibition; M. tuberculosis hypoxia-regulated fluorescent reporter, fluorescence; fluorescence inhibition, % (test concentration not listed); actives 0.1% (n = 300,000);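 active = 35 to 45% if threefold the growth effect, above 45% if 1.5-fold the growth effect; inactive = the rest, general growth blockers included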;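 also: wells of about 50 µL received 100 nL stock; 0% = vehicle wells and 100% = reference inhibitor wells; whole bacteria with a GFP reporter of the hypoxia response; strong numbers were not always called active; many hits fall short of the cut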
BJeLR lethal = BJeLR cell viability loss | BJeLR (HRASV12) viability, CellTiter-Glo ATP luminescence, 48 h; reference of the scale not given here | inhibition, % (concentration not given with the values) | actives 0.17% (n = 300,000) | AID 1554;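 active = replicate mean above 50%; inconclusive = above 50% but judged a plate artefact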;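 also: 50 nL library stock added to about 25 µL; numbers are from one replicate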
PrP 5UTR inh = suppresses PrP 5' UTR mRNA reporter expression; cell-based PrP 5' UTR mRNA reporter, plate reader; actives 0.35% (n = 340,000); inhibition, % (concentration not given with the values);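 active = every replicate at 50% or more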;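 also: 0 = median of the neutral control wells; tested in H4 reporter cells; numbers are from one replicate; inactives centre near -14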
RN4220 kill = kills Staphylococcus aureus RN4220; S. aureus RN4220 growth, OD600, 16 h; inhibition, % (no concentration beside the values); actives 0.33% (n = 330,000); AID 1259311;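 active = z-score of -3 or lower and OD600 up to 0.18 on both plates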;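 also: plate controls were untreated cells for no effect and reference antibiotic for full effect; stock transfer was 100 nL into about 80 µL; one replicate is shown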
Mtb hypoxia inh growth = second read-out of Mtb hypoxia inh, no call of its own (marks repeat the call); growth inhibition, %; measured here: M. tuberculosis growth (absorbance);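 0% = vehicle and 100% = reference antibiotic; read after six days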
The depositor's hits bear a star; ? = inconclusive; / = not tested or not shown. Hits appear at their usual frequency; about 4.1% have a hit in one of these screens.

SMILES	Autofluor counter	ugtP null kill	Mtb hypoxia inh	Mtb hypoxia inh growth	BJeLR lethal	PrP 5UTR inh	RN4220 kill
CC(C)C[C@@]12C(=O)N(c3ccc(Br)cc3)C(=O)N1[C@H](c1ccc(Br)cc1)[C@@H]1C(=O)N(C(C)(C)C)C(=O)[C@@H]12	2818	/	/	/	-6	-6	/
O=C(N1CCCCC1)N1CCN(C(=O)N2CCCCC2)CC1	3208	/	/	/	6	-4	/
CSc1cccc(NC(=O)CNC(=O)c2ccc3c(c2)OCO3)c1	5513	14	2	6	-6	-33	1.4
COc1ccc(-c2cc(-c3nnc(COC(=O)c4ccncc4)o3)c3ccccc3n2)cc1OC	3883	1	10	7	3	-7	7.6
CCCc1nc2c(sc3nc4c(cc32)COC(C)(C)C4)c(=O)n1CCN(C)C	4482	-1	7	4	-5	-7	0.4
COc1ccc(C(CNC(=O)Cn2c(=O)oc3ccccc32)N(C)C)cc1 (stereo not given)	5202	9	11	14	1	-10	3.7
CCO[C@H]1OC(C(=O)Nc2ccccc2)=C[C@@H](c2cn(C(C)=O)c3ccccc23)[C@@H]1CCCO	2803	/	/	/	-6	2	/
COc1cccc(CCN2CCC(CNS(=O)(=O)c3cc(-c4cc(C)no4)ccc3OC)CC2)c1	7266	5	7	7	19	-17	-0.8
CC1CCc2c(sc(NC(=O)Cn3cnc([N+](=O)[O-])n3)c2C(N)=O)C1 (stereo not given)	2113	35	-1	10	-2	-18	-5.1
O=C(c1ccc(CS(=O)(=O)c2ccc(Br)cc2)o1)N1CCN(c2ncccn2)CC1	5280	8	/	/	-1	-6	2.8

A draw from above in order of count of non-hydrogen atoms, low to high:
SMILES	Autofluor counter	ugtP null kill	Mtb hypoxia inh	Mtb hypoxia inh growth	BJeLR lethal	PrP 5UTR inh	RN4220 kill
CSc1cccc(NC(=O)CNC(=O)c2ccc3c(c2)OCO3)c1	5513	14	2	6	-6	-33	1.4
COc1ccc(C(CNC(=O)Cn2c(=O)oc3ccccc32)N(C)C)cc1 (stereo not given)	5202	9	11	14	1	-10	3.7
CCCc1nc2c(sc3nc4c(cc32)COC(C)(C)C4)c(=O)n1CCN(C)C	4482	-1	7	4	-5	-7	0.4
COc1ccc(-c2cc(-c3nnc(COC(=O)c4ccncc4)o3)c3ccccc3n2)cc1OC	3883	1	10	7	3	-7	7.6

New compounds follow:
SMILES	Autofluor counter	ugtP null kill	Mtb hypoxia inh	Mtb hypoxia inh growth	BJeLR lethal	PrP 5UTR inh	RN4220 kill
COc1ccc2c(c1)c(CC(=O)Nc1nnc(C3CC3)s1)c(C)n2C(=O)c1ccc(Cl)cc1	5139	11	-2	7	19	-30	-13
Cc1noc(C)c1CSCC(=O)OCc1nnc(-c2ccc([N+](=O)[O-])cc2)o1	/	-3	1	2	/	-16	1.7
CCC1Oc2ccc(C)cc2N(CC(=O)N(Cc2ccc3c(c2)OCO3)CC2CCCO2)C1=O (stereo not given)	24977*	8	3	1	-7	-10	8.6
CCOC(=O)N1CCN(c2c(Nc3ccc4c(c3)OCCO4)c(=O)c2=O)CC1	5650	2	5	3	-6	-4	2.9
O=C(Nc1c2c(nn1-c1cccc(Cl)c1)CS(=O)(=O)C2)c1cccs1	4392	11	8	1	-2	-2	6.1
Cc1cc(Cl)ccc1OCC(=O)Nc1ccc2oc(=O)ccc2c1	3865	8	-6	3	-4	-20	1.6
Cc1c(C(=O)C(=O)N2CCC3(CC2)OCCO3)c2ccccc2n1C	4944	3	5	4	6	2	9.4
CC(C)OP(=O)(Nc1cccc2ccccc12)OC(C)C	2228	-7	9	2	9	-33	4.4
COc1ccc(-c2nc(-c3cccs3)c(-c3cccs3)[nH]2)cc1O	2670	7	/	/	-5	-5	-1.5
CN(C)CCCN(C(=O)/C=C/c1cccs1)c1nc2ccc(F)cc2s1	3452	1	12	15	3	7	-9.9
CC(C)NC(=O)Cn1c(SCC(=O)N2CCc3ccccc3C2)nc2ccccc21	20580*	0	8	11	-13	8	0.7
CCOC(=O)c1cc(-c2ccc(/C=N\n3cnnc3)o2)ccc1Cl	2146	/	/	/	3	-19	/
Cc1ccc2c(c1)N(CC(=O)OCC(=O)NCc1ccccc1)C(=O)CO2	4200	3	8	1	2	-13	2.1
Cc1cc(NCc2ccc3c(c2)OCO3)n2nc(C)nc2n1	6059	0	/	/	1	-15	-2.6
CCOc1cc(CN2CCN(CCOCCO)CC2)ccc1OC	8103	-2	9	4	-11	-12	5.6
CCOC(=O)c1c(C)[nH]c(C)c1C(=O)COC(=O)CSc1ccc(C)cc1	9278	-2	-6	2	/	-9	8.7
O=C(O)c1cccc(CN2C(=O)SC(Nc3ccccc3)C2=O)c1 (stereo not given)	3969	3	/	/	-13	-13	-0.9
Cc1nn2c(NCCN3CCOCC3)c3c(nc2c1-c1ccccc1)CCCC3	3989	5	2	19	2	-21	5.1
CC1CCN(CC(=O)Nc2cccc(C(=O)Nc3cccc(C(F)(F)F)c3)c2)CC1	2275	-16	-12	5	0	-3	-1.4
CC(NC(=O)COc1ccccc1Cl)c1ccccc1 (stereo not given)	3882	-2	10	23	3	6	3.1
CC(=O)c1ccc(Nc2cc(C)nc3ccc(C)cc23)cc1	5344	-3	20	18	-2	-37	6.0
O=C(NCc1ccccc1)/C(=C/c1cccc([N+](=O)[O-])c1)NC(=O)c1ccco1	3001	16	12	6	3	15	4.0
COc1cc(/C=C/c2cc(C(=O)O)c3ccccc3n2)ccc1OC(F)F	3770	10	2	5	8	-3	7.2
C#CCn1cc[n+](CC(=O)N(C)C)c1	6433	2	6	7	2	-4	2.6
COc1ccc(NC(=S)NCc2ccc(Cl)cc2)c(OC)c1	3654	5	3	7	0	-21	4.9
COc1ccc(CCNC(=S)N2CCC(Cc3ccccc3)CC2)cc1OC	4381	4	16	0	-1	-12	0.5
Cc1ccc(C(=O)NC(=S)N(C)C2CCCCC2)cc1	6468	8	4	6	-4	-37	2.6
CCS(=O)(=O)c1ccc2oc(SCC(=O)Nc3ccc(OC)cc3)nc2c1	3192	8	5	-6	-4	-16	3.0
CC1CCCCC1N(C)C1CCN(C(=O)CNC(=O)/C=C/c2cccc(Cl)c2)CC1 (stereo not given)	4126	12	4	-2	90*	-2	5.8
CCN(CC)S(=O)(=O)c1ccc(NC2c3ccccc3C(=O)N2Cc2ccco2)cc1 (stereo not given)	5799	4	6	6	-3	-10	-5.4
CCN(CC)CCCOC(=O)C(c1ccccc1)c1ccccc1	5288	7	/	/	9	4	0.0
O=C(CC1CCCCC1)Nc1ccccc1-c1ccccc1	2035	7	16	5	0	-21	3.0
CS(=O)(=O)NNP(=O)(NNS(C)(=O)=O)NC(=O)c1ccccc1	6149	1	-1	9	-9	-2	4.6
COc1ccc(C#Cc2c(-c3ccc(OC)cc3)oc3ccc(-c4ccc5c(c4)OCO5)cc23)cc1	4197	-2	9	7	6	7	3.8
COc1c(C(=O)Nc2nnc(C3CC3)s2)csc1Cl	4726	6	6	0	-16	-70	3.4
Cc1cccc(NC(=O)COc2ccc(Br)cc2C=NO)c1	/	-7	4	9	/	/	-0.1
COc1ccc(C=NNC(=O)CNS(=O)(=O)c2ccc(C)cc2)cc1	/	13	1	0	/	/	4.2
CC(NC(=O)C(C)N1CCN(Cc2ccccc2)CC1)c1ccccc1 (stereo not given)	3657	11	7	-4	-4	-9	0.1
COC(=O)c1ccc(N2CCN(C)CC2)c(NC(=O)COc2ccccc2)c1	2959	7	21	10	-6	-9	2.9
COc1ccc(C(=O)COC(=O)CCNS(=O)(=O)c2ccccc2)cc1Br	6526	2	3	4	-5	-4	1.9
c1c2c(cc3sc(N4CCOCC4)nc13)OCO2	9563	10	5	3	13	-45	16
O=C(NCCS(=O)(=O)NCc1ccccc1Cl)c1ccccc1	5868	/	/	/	11	-5	/
CC(C)(C)OC(=O)NCCCCC(NC(=O)c1nc[nH]c1C(=O)NCC(=O)OCc1ccccc1)C(=O)OC(C)(C)C (stereo not given)	/	7	13	15	/	/	6.0
Cc1ccc(CN2CCN(N=Cc3ccc(C(=O)O)cc3)CC2)cc1	/	-10	6	3	/	/	-2.6
Cc1ccc(S(=O)(=O)N/N=C/c2ccc3nccnc3c2)cc1	4056	/	/	/	0	-11	/
CC(C)(C)NC(=O)CSc1ccc(S(=O)(=O)N2CCOCC2)cn1	/	6	7	0	/	-7	3.5
CCOc1ccc(C(=O)N2CCCCCC2)cc1	2102	1	/	/	-11	-20	2.9
CCCCn1c(N)c(N(CC)C(=O)c2cccs2)c(=O)[nH]c1=O	2932	-1	-3	-2	/	8	3.1
CCn1ncc(C=NNC(=O)COc2ccccc2)c1C	/	1	-8	-2	/	/	-3.9
CN(C(=O)c1ccc(NC(=O)Cc2ccc(NC(=O)C3CCCN(C(=O)C4CCCC4)C3)cc2)cc1)C1CCCC1 (stereo not given)	3069	5	-1	0	/	-18	1.8
Other entries:
SMILES	Autofluor counter	ugtP null kill	Mtb hypoxia inh	Mtb hypoxia inh growth	BJeLR lethal	PrP 5UTR inh	RN4220 kill
CCCOc1ccc(C(=O)Nn2c(C)nc3ccccc3c2=O)cc1	9119	7	13	-1	-3	-22	4.8
CC(C)CC(NC(=O)C1CCCN1C(=O)CNC(=O)OCc1ccccc1)C(=O)O (stereo not given)	3087	-4	-2	-13	-11	13	-1.4
COc1cc(NC(=O)C(C)Oc2ccccc2)c(OC)cc1NC(=O)c1ccccc1 (stereo not given)	?	-14	0	1	2	1	2.7
COc1ccc2[nH]c(C)c(CCN3C(=O)OC(C)(C)C3(C)O)c2c1 (stereo not given)	5876	-2	-1	12	2	-6	-2.9
CCN(CC)C(=O)c1ccccc1NC(=O)CN1C(=O)c2ccccc2S1(=O)=O	5672	8	1	0	-14	1	0.3
COc1ccc(N2C(=O)C3CCCN3C2c2cccc(Br)c2)cc1 (stereo not given)	5747	-3	/	/	3	-36	-2.0
CC(=O)OC1CCC2(C)C(=CCC3C4CC(=O)N(O)C(=O)C4(C)CCC32)C1 (stereo not given)	3685	57	0	5	/	-8	-3.0
O=C(CCSCc1cccc(Cl)c1)NCCc1ccccc1	2685	8	-2	-1	-2	-18	0.9
CC(=O)Nc1ccc(NC(=O)C(C)OC(=O)CCC2CCCCC2)cc1 (stereo not given)	5221	2	1	2	7	-11	-2.5
CCOC(=O)CC(=O)Nc1ccc(C)cc1	4681	/	/	/	-5	-12	/
Cc1cc(Nc2ccc([N+](=O)[O-])cc2)c2ccccc2n1	4262	4	12	3	1	0	-2.3
O=[N+]([O-])c1cccc(-c2ccc(C=NNC(=S)NCc3ccco3)o2)c1	/	-3	16	5	/	/	1.2
CCc1sc(N2C(=O)C3C4CCC(C4=C(C)C)C3C2=O)nc1-c1ccccc1 (stereo not given)	10873	27	-6	-10	-4	2	4.1
Cc1ccc(C)n1N1C(=O)/C(=C\c2ccc(Cl)cc2)SC1=S	2448	-32	/	/	-1	9	-1.3
O=C(CNc1cccc2ccccc12)NN=Cc1cccc(Oc2ccccc2)c1	/	-17	6	5	/	/	-8.1
COc1ccc(-n2ncc3c(NCCCN4CCOCC4)ncnc32)cc1	6522	2	19	7	-8	-43	-1.0
N#Cc1cc2c(nc1SCC(=O)O)CCCCC2	4649	1	-10	3	-2	-9	2.9
Cc1cc(C)c2nc(N3CCN(C(=O)c4ccco4)CC3)sc2c1	?	-3	-1	5	3	-20	4.0
CC(C)OCCCNC(=O)c1cc2c(s1)CS(=O)(=O)C2	4328	8	1	1	3	-14	1.9
COc1ccc(N=Nc2c(C)[nH]c3ccccc23)cc1	4437	82*	14	9	-7	-51	-2.0
Cc1sc(N)nc1-c1cccs1	9102	15	8	11	-2	-19	7.1
CC1CCN(C(=O)c2[nH]cnc2C(=O)N2CCN(C(=O)OC(C)(C)C)CC2)CC1	4131	1	-5	2	/	-23	7.6
CCN(CC)c1ccc(NC(=O)COC(=O)COc2ccccc2[N+](=O)[O-])cc1	2525	-3	17	1	2	-11	9.0
CCc1nnc(NC(=O)c2cc(S(=O)(=O)N3CCOCC3)ccc2N2CCCCC2)s1	4353	-4	-13	-2	-1	-7	4.6
COc1cc(OC)cc(-c2nnc(SCC(=O)N3CCCC3)o2)c1	2891	-5	/	/	6	-40	2.3
CN(C(=O)COC(=O)c1ccc(Cl)cc1N)C1CCS(=O)(=O)C1 (stereo not given)	2465	/	/	/	5	-15	/
COc1ccc(/C=N/NC(=O)c2ccncc2)cc1CN1CCCc2ccccc21	5192	/	/	/	0	-16	/
NC(=O)c1ccsc1NC(=O)COC(=O)C1CCCN1C(=O)c1cccs1 (stereo not given)	/	-4	/	/	-4	/	1.7

Screens: PubChem, several laboratories
